# Yeast UUG start – yeast start codon fidelity modulation. activity score, % at 18.7 µM. 350,000 compounds, 0.13% hits. S. cerevisiae UUG-firefly luciferase reporter, luminescence/redox ratio;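 active means replicate mean at a twofold rise or more, about +100% in these data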;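 further: firefly luciferase made from a UUG start codon reports start codon fidelity; reporter light over untreated wells divided by growth signal over untreated wells; some hits fall short of that in this replicate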
# Rce1 inh – yeast Ras-converting enzyme inhibition | Q03530 | 290,000 compounds, 0.27% hits | calls only | AID 2563 | yeast membranes, quenched prenylated peptide cleavage fluorescence;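 active means fall in fluorescence gain of 50% or more versus controls, with final raw signal at or below 3038400; inconclusive means same 50% fall but final raw signal above 3038400; inactive means fall in fluorescence gain under 50%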;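 further: plate controls were neutral control wells for no effect and wells lacking membranes for full effect; tested at 10 µM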
# Target sequence (Q03530 whole entry, looked up): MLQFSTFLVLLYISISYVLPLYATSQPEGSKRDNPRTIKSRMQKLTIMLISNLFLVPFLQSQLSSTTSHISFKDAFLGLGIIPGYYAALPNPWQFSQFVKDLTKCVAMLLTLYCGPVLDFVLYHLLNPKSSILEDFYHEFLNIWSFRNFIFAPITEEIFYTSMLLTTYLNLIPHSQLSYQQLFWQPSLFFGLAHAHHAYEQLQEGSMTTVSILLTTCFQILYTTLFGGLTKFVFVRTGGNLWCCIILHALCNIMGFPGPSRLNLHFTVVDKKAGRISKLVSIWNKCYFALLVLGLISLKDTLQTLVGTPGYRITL
# Env fusion inh – HIV envelope-mediated fusion inhibition | HeLa-JRFL Env/CEM21 cell fusion, luciferase | inhibition, % at 12.3 µM | 360,000 compounds, 1.1% hits;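 active means mean replicate inhibition score of at least 50 and every replicate individually at or above 50; inconclusive means only one of the two criteria met; inactive means mean below 50 and not all replicates reaching 50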;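 further: 0% = plate neutral controls and 100% = maraviroc near 300 nM; one replicate is shown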
# MT1-MMP act inh – MT1-MMP (human) activation inhibition; HT1080 RFP-PRO-GFP cells, GFP/RFP ratio fluorescence, overnight; percent of plate control window, DMSO zero; GFP/RFP ratio change, % at 20 µM; 360,000 compounds, 0.061% hits;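 active means GFP/RFP ratio change of at least 30% with cell ATP level not reduced by more than half and red fluorescence within 50% of control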; further: strong numbers were not always called active
#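 Assay system: HT1080 cells carrying an RFP-PRO-GFP reporter | Dosing: Single dose of 20 µM compound, 1% DMSO final | Incubation: Cells overnight before dosing, compound overnight, 37 °C, 5% CO2 | Evaluation: GFP/RFP fluorescence ratio | Control set: DMSO and RFP-L50D-GFP cell wells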
# eIF4H inh – inhibitors of RNA binding by human eIF4H; 290,000 compounds, 0.94% hits; eIF4H fluorescence polarization binding assay; inhibition, % at 35 µM; Q15056;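 active means 50% or more with normal probe brightness, or confirmed in later tests; inconclusive means above 50% with abnormal brightness, or retests that disagree; inactive means below 50% or failed in later tests; about a fifth of its hits are not listed in these tables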;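 further: calls also rest on retests at 20 µM and on dose response follow-up; 0% = protein and probe with vehicle and 100% = probe without protein; strong numbers were not always called active; many hits fall short of the cut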
# CSC inhib – blocks cancer stem cells; cancer stem cell-like cells viability, luminescence; inhibition, % at 7.5 µM; 300,000 compounds, 1.1% hits; AID 2717;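 active means mean at 75% or more and at least half the replicates too; inconclusive means mean and replicates disagree; tested in HMLE shEcad cells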;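 further: 0% = median of negative and 100% = median of positive control wells; the first replicate is given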
# PABP FP inh – blocks human PABP binding to poly(A) RNA; inhibition, % at 35 µM; 290,000 compounds, 1% hits; fluorescence polarization; P11940;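 active means 50% or more with normal probe brightness, or confirmed in later tests; inconclusive means above 50% with abnormal brightness, or retests that disagree; inactive means below 50% or failed in later tests; about a fifth of its hits are not listed in these tables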;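 further: calls also rest on retests at 20 µM and on dose response follow-up; controls were probe without protein and protein plus probe with vehicle; some compounds called inactive have numbers as strong as hits; many hits fall short of the cut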
# Target sequence (P11940 whole entry, looked up): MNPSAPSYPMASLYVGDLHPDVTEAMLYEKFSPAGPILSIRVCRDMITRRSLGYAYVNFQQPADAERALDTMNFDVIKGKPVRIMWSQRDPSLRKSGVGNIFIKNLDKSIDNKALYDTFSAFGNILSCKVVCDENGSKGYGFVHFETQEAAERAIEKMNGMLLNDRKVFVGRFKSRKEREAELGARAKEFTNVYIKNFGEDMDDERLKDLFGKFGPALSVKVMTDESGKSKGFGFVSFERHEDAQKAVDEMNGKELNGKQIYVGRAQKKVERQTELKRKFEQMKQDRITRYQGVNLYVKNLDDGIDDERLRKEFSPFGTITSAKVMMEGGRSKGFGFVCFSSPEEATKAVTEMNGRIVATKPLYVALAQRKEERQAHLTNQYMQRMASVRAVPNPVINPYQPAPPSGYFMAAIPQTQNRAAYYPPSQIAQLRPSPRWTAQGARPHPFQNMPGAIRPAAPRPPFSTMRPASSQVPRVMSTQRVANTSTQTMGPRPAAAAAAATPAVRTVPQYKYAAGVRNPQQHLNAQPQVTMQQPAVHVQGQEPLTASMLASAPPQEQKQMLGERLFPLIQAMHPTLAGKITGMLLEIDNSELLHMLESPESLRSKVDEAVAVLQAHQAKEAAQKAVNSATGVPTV
# MT1-MMP act inh RFP – second read-out of MT1-MMP act inh, no call of its own (marks repeat the call); RFP signal change, %; measured here: RFP expression control read;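 0 = vehicle wells; hits needed this value within 50% of zero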
# The depositor's hits bear a star; i = inactive; ? = inconclusive; nt = no result given; + = active, no number; & = joins results of further samples. Some of the compounds tested; the hit share may differ from the screen's.
SMILES,Yeast UUG start,Rce1 inh,Env fusion inh,MT1-MMP act inh,MT1-MMP act inh RFP,eIF4H inh,CSC inhib,PABP FP inh
Cc1ccc(NC(=O)NNC(=O)C2CC(c3cccnc3)=NO2)cc1 (centres undefined),1,i,nt,0,4,-5,4,-7
COc1ccc(NC(=O)N2CCN(c3cccc(C(F)(F)F)c3)CC2)cc1OC,9,i,28,1,-1,18,nt,2
CCc1sc(NC(=O)C(C)C)nc1-c1ccccc1,-14,i,0,3,0,1,13,16
COc1ccccc1OCCNC(=O)c1ccc(C(C)(C)C)cc1,nt,i,-54,6,3,nt,-14,nt
Cc1ccc(C(=O)c2c(NC(=O)c3ccccc3)sc(C)c2C)cc1,8,i,-26,1,-1,-12,17,-3
CCC1(c2ccccc2)NC(=O)N(CC(=O)c2ccc3c(c2)OCO3)C1=O (centres undefined),9,i,-10,-1,1,nt,0,nt
CC1(C(=O)NS(=O)(=O)Cc2cccc(Cl)c2)CCN1C(=O)CCc1ccccc1 (centres undefined),23,nt,1,2,-1,nt,nt,nt
CCC(C)NC(=O)CSc1ccc(NC(C)=O)cc1 (centres undefined),-15,i,-20,4,5,-4,-18,0
c1ccc(-n2nnnc2N2CCOCC2)cc1,-6,i,nt,5,1,-1,-17,-17
O=C(CCl)NN1C(=O)NC2(CCCCC2)C1=O,nt,i,-10,2,6,-9,2,27
COC(=O)Oc1ccc(/C=C/C(=O)OC(C)C)cc1OC(=O)OC,-25,i,-11,-5,-12,0,58,-8
CCN(CC)c1ccc(-c2nn3c(-c4n[nH]c5c4CCC5)nnc3s2)cc1,-22,i,nt,8,-7,-16,56,1
CC1C(=O)Nc2ccc(S(=O)(=O)N3CCN(c4cccc(Cl)c4)CC3)cc2NC1=O (centres undefined),-4,i,nt,-1,-9,6,15,-1
COCCNC(=O)C(c1ccccc1C)N(C(=O)Cn1nnc2ccccc21)c1cccnc1 (centres undefined),-4,i,-274,-1,-2,1,-12,-10
O=C(O)CC1c2ccccc2CCN1S(=O)(=O)c1ccccc1 (centres undefined),-4,i,4,-2,4,nt,-5,nt
CCC(=O)Nc1c(C)cc(C)cc1Cl,10,i,nt,-1,8,-5,nt,-4
COc1cccc(NC(=O)N(Cc2cc3cc(C)cc(C)c3[nH]c2=O)CC2COCCO2)c1 (centres undefined),-13,i,-91,0,-2,-7,nt,-1
CC(C)c1nn2c(=O)cc(O)nc2s1,nt,i,nt,-2,4,3,-14,-2
COc1ccccc1CNC(=O)CNC(=O)N1CC(=O)Nc2ccccc21,-13,i,14,0,1,-13,8,-6
CC(C)CNC(=O)c1c(N)n(/N=C/c2ccccn2)c2nc3ccccc3nc12,0,i,-11,7,-2,-3,4,8
CC(C)CN(C(=O)c1ccc(=O)n(C)n1)c1c(N)n(Cc2ccccc2)c(=O)[nH]c1=O,nt,i,nt,2,6,nt,-3,nt
Cc1ccccc1N=C1NC(=O)CS1,-13,i,nt,2,6,-2,2,-8
CC[C@]1(C(=O)OC)[C@H]2C(=O)N(C)C(=O)[C@H]2[C@H]2CN=C(SCc3ccccc3)N21,-5,nt,-23,2,5,nt,nt,nt
Cc1cc(C(=O)Nc2nnc(C3CC3)s2)c(C)s1,-12,nt,-72,-2,0,nt,nt,nt
COc1ccccc1CCC(=O)Nc1ccc(S(=O)(=O)Nc2cc(C)nc(C)n2)cc1,-21,i,nt,-1,-1,nt,-12,nt
SMILES,Yeast UUG start,Rce1 inh,Env fusion inh,MT1-MMP act inh,MT1-MMP act inh RFP,eIF4H inh,CSC inhib,PABP FP inh
COc1cc(CC(=O)OCC(=O)N2CCCCC2)cc(OC)c1OC,1,i,-31,-4,-2,-9,-11,0
Cc1ccccc1C(=O)c1cccn1CC(=O)NCC(C)c1ccccc1 (centres undefined),7,i,11,0,2,-3,18,3
COc1ccc(C(c2c(C)n(C)n(-c3ccccc3)c2=O)c2c(C)n(C)n(-c3ccccc3)c2=O)cc1O,nt,i,nt,nt,nt,-11,-6,9
Cc1c(Cl)cnc(NC(=O)CSc2nnc(C)n2Cc2ccccc2)c1Cl,-9,nt,nt,-2,-4,-6,8,6
Cc1cc(C)c2c(n1)nn1c(N3CCN(Cc4ccccc4)CC3)cc(C)nc21,22,nt,-27,12,-1,0,nt,-9
O=C1c2cnc3nc(SCc4ccc(Cl)cc4)nn3c2CC2c3ccccc3CCN12 (centres undefined),-7,i,-30,1,-4,-9,13,-10
CC(=O)N(c1ccc(Cl)cc1)c1c[nH]c2ccccc12,nt,nt,3,-8,-4,0,nt,3
COc1ccc(C2C(C)C3(O)CC(C#N)(C(=O)N3)C2(C#N)C#N)cc1 (centres undefined),nt,i,4,-2,4,-3,-17,-4
CN(C)CCCN(C(=O)c1ccc(Cl)s1)c1nc2cc3c(cc2s1)OCO3,-25,i,-5,-4,-1,-2,-9,7
NC(=O)c1ccccc1NC(=O)CC12CC3CC(CC(C3)C1)C2,-8,i,32,1,-7,-10,nt,1
CS(=O)(=O)Nc1ccccc1C(=O)Nc1cccc(Cl)c1,0,+,nt,-3,-11,1,76*,2
COc1cc(/C=N/n2c(C)nnc2C)cc(OC)c1OC,-8,i,nt,-2,1,-1,-5,0
C=CCn1c(SCC(=O)NC2CCS(=O)(=O)C2)nc2sc(CC)cc2c1=O (centres undefined),-16,i,nt,-4,1,-4,-2,-4
Cc1ccc(NC(=O)c2ccccc2OCc2c(C)noc2C)cc1S(=O)(=O)N(C)C,-17,nt,3,-2,-2,nt,nt,nt
COc1cccc(OC)c1C(=O)Nc1cccc(NC(=O)c2cccs2)c1,8,i,3,-2,-5,-10,-12,-9
O=S(=O)(Oc1ccccc1)c1cccnc1,nt,i,7,3,2,nt,-1,nt
O=C(C1CCCCC1C(=O)N1CCCCC1)N1CCCCC1 (centres undefined),-2,nt,7,-1,-3,nt,nt,nt
O=C(NC(=S)NCc1ccccc1)c1cccc([N+](=O)[O-])c1,-24,i,12,1,-5,0,10,2
COc1ccccc1CCNC(=O)CCn1nc(C)c2c(C)n(-c3ccccc3)nc2c1=O,6,i,4,1,-6,-12,-2,2
COc1ccccc1CNC(=O)CCNC(=O)Cn1cnc2ccccc2c1=O,-9,i,-37,-1,-4,6,-10,3
CCOc1cc(/C=N\Nc2ncc(F)c(N3CCOCC3)n2)ccc1Oc1nc(Cl)ncc1F,nt,i,-8,3,-21,-5,-1,7
CCOC(=O)/C=C/c1ccc(C(F)(F)F)cc1S(=O)(=O)NC(C)(C)C,-4,i,-5,-14,-14,nt,8,nt
CCCc1cc(=O)[nH]c(SCC(=O)c2cc(C)n(C)c2C)n1,-22,i,nt,2,4,13,-14,-2
CN(Cc1ccccc1)C(=O)c1ccc([N+](=O)[O-])o1,nt,nt,11,-6,-8,-2,8,0
CCOc1ccccc1N1CCN(C(=O)CCCc2nc3ccccc3s2)CC1,nt,i,9,-1,-1,0,-6,-17
SMILES,Yeast UUG start,Rce1 inh,Env fusion inh,MT1-MMP act inh,MT1-MMP act inh RFP,eIF4H inh,CSC inhib,PABP FP inh
CN(CC(=O)NC1CC1)S(=O)(=O)c1ccc(F)cc1,-8,i,-2,2,4,47,35,-4
CN(C)C(=O)c1cc(C(=O)c2c(F)cccc2F)c[nH]1,-5,i,7,-4,-2,0,nt,9
Cc1ccccc1C(=O)Nc1ccc(S(=O)(=O)N2CC(C)OC(C)C2)cc1 (centres undefined),8,i,1,-2,-11,-2,-8,9
CC(=O)Nc1ccc(S(=O)(=O)N2CCNC(=O)CC2)cc1,-15,i,-51,2,-1,1,-3,14
NC(=O)Oc1cccc(OC(N)=O)c1,-8,i,4,1,-2,0,-6,4
CC1CN(CCS(=O)(=O)c2cc(Cl)ccc2Cl)CC(C)O1 (centres undefined),-3,i,-26,4,3,-2,16,10
O=C1C=CC(=Nc2ccc(F)cc2)O1,-21,nt,1,8,2,nt,nt,nt
CCCNC1=CC(=O)CC(C)(C)C1,nt,i,nt,3,5,2,17,33
Cc1cc(Cl)c(OCCCn2ccnc2)c(Br)c1,nt,i,nt,2,-6,-1,16,-1
CCCCCCn1c(CN2CCCC(C)C2)nc2c1c(=O)n(C)c(=O)n2C (centres undefined),-8,i,-8,4,-8,12,-20,-5
O=C(O)c1cc(S(=O)(=O)N2CCCCC2)ccc1N1CCOCC1,-13,nt,-3,-2,-3,nt,-23,nt
CC1(C)C(=O)Nc2ccccc2N1C(=O)COC(=O)c1cccc(O)c1,-11,nt,14,-4,2,nt,20,nt
O=C(Nc1ccc(NC(=O)c2cccs2)cn1)c1ccccc1,nt,i,-116,5,2,5,-3,-16
O=C(CCNc1cccc(Cl)c1)c1ccco1,-6,i,nt,nt,nt,2,4,3
O=C1C2C3c4ccccc4C(c4ccccc43)[C@@H]2c2nc3ccccc3n21 (some centres undefined),nt,i,nt,-7,-20,-10,-6,-11
Cc1oc2c(c(C)cc3oc(=O)c(CC(=O)N[C@@H](CCCNC(N)=O)C(=O)O)c(C)c32)c1C,-1,i,3,-2,2,-3,3,1
Cc1ccc(N2CCN(C3=NC(=O)/C(=C\c4cccs4)S3)CC2)cc1,nt,i,nt,2,-5,-4,18,-2
CC(C)c1ccc(S(=O)(=O)Nc2ccc3c(c2)OCO3)cc1,5,nt,15,14,-9,nt,-18,nt
Cc1cccnc1Nc1nc(-c2ccccc2)cs1,-28,i,-190,2,-2,-6,22,-4
CN(Cc1ccccc1)C(=O)c1ccccc1NC(=O)c1ccccc1,2,i,nt,-3,0,7,nt,-3
Cc1ccccc1C(=O)NC1CCN(C(=O)NC2CCCCC2)CC1,-14,i,-7,6,9,-9,-5,10
O=C(CN(C(=O)CCC(=O)Nc1nccs1)c1ccc(F)c(Cl)c1)NCC1CCCO1 (centres undefined),-11,i,9,-1,1,4,nt,6
CC(C)Oc1ccc(S(=O)(=O)N2CCOCC2)cc1NC(=O)C(C)Oc1ccc(F)cc1 (centres undefined),-2,i,3,-8,-5,nt,0,nt
COc1cc2c(cc1OC)C(c1cc(OC)c(OC)c(OC)c1)NCC2 (centres undefined),1&1,i,-313,7,8,-1,15,-5
Cc1ccc(-n2ncc3c(=O)[nH]c(SCC(=O)N4CCCCC4)nc32)cc1,-8,i,-8,-3,-1,-9,-10,4
SMILES,Yeast UUG start,Rce1 inh,Env fusion inh,MT1-MMP act inh,MT1-MMP act inh RFP,eIF4H inh,CSC inhib,PABP FP inh
O=C(COC(=O)c1ccccc1C(=O)c1ccccc1)Nc1ccc(SC(F)F)cc1,nt,i,-1,5,-5,10,2,-3
CCOCCn1c(CN2CCN(c3ccc(OC)cc3)CC2)nc2c1c(=O)n(C)c(=O)n2C,-2,i,nt,6,-4,nt,-5,nt
Cc1ccnc(NC(=O)/C=C/c2ccccc2Cl)c1,nt,i,-172,-6,-8,6,14,21
CSCCC(NC(=O)c1ccc(Cl)cc1)C(=O)O (centres undefined),nt,i,4,-1,5,1,-6,?
Cc1cnc(C(=O)N2CCN(c3ccc(C(F)(F)F)cn3)CC2)cn1,-10,i,24,-3,-4,19,3,8
Cc1c(NC(=O)c2c(NC(=O)CNC3CC3)sc3c2CCCC3)c(=O)n(-c2ccccc2)n1C,-11,i,nt,-4,-1,-7,-13,-10
COc1ccccc1NC(=O)Nc1nn(C)c2cccc(OC)c12,-11,i,1,5,-1,0,9,6
COCCOc1ccc(C(F)(F)F)cc1NC(=O)CN1C(=O)NC(C)(c2ccc3c(c2)OCO3)C1=O (centres undefined),nt,i,20,0,-5,nt,9,nt
COc1ccc(NC(=O)COC(=O)C2CCN(S(=O)(=O)c3ccccc3)CC2)cc1Cl,8,i,-4,3,4,nt,-2,nt

# High-throughput results from PubChem.
